Assay outcomes: PubChem BioAssay, National Center for Advancing Translational Sciences (NCATS)
ClpP mod – qHTS Assay for Activators of ClpP | purified B. subtilis ClpP, FRET peptide cleavage, 20 min | Potency, µM (doses to about 57.5 µM), inactives show top-dose activity change, negative = active | 340,000 compounds, 1.9% hits; active = well fitted falling curve with a large enough effect; inconclusive = small, poorly fitted or top-dose-only effect; inactive = no such curve, though single readings can be large or run the other way; further: the source files actives as falling curves though it sought activators and does not explain the sign; nearly all actives have a fitted effect of over 65% in size; many hits overshoot -100%
Target sequence (P80244 whole entry, looked up): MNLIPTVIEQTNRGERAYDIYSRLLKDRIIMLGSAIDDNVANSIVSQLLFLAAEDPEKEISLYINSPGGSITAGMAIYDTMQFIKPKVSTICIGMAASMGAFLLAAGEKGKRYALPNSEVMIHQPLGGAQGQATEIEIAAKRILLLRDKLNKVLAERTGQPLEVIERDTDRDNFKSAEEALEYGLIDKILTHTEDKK
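ClpP 10 microg/mL final, pH 8 Tris/KCl buffer with BSA, glycerol, Tween-20; compound pinned in; FRET-FV substrate; RT 20 min; Ex320/Em430; ΔFRET vs ADEP 5.8 microM, DMSO, no enzyme.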
Active calls of the source: *. Potency means the concentration at half of the fitted maximal effect. A portion of the library. The share of hits here may be higher or lower than overall.

`Cc1cccc(C)c1NC(=O)C1(C)CN(S(C)(=O)=O)CC(=O)N1CCc1c[nH]c2ccccc12` (stereo unspecified) gave ClpP mod -4.3%.
COC(=O)C[C@H]1CC[C@@H](NC(=O)Nc2cccc(OC)c2)[C@@H](CO)O1 was read as ClpP mod 1.7%.
`COc1ccccc1-c1ncn(Cc2cccc(-c3ccccc3)c2)c1-c1ccco1` gave ClpP mod -22.2%.
Cc1cc(C)c(NC(=O)C2C(=O)Nc3ccccc3C(=O)N2C(C)(C)C)c(C)c1 (stereo unspecified) was read as ClpP mod -6.3%.
Screening CCCCCCCCN1C(=O)[C@H](CC(=O)N2CCN(C(=O)C3CC3)CC2)C[C@@]2(C(=O)OC)CC(C)(C)CC=C12 returned ClpP mod 0.8%.
CO[C@H]1CN(C)C(=O)c2cc(NC(=O)C3CCOCC3)ccc2OC[C@H](C)N(Cc2nccs2)C[C@H]1C was read as ClpP mod 0.6%.
O=C(/C=C1\OCc2ccccc21)OCc1ccccc1 was read as ClpP mod 1.6%.
Screening COC(=O)C[C@@H]1CC[C@H](NC(=O)Cc2ccccn2)[C@@H](CO)O1 returned ClpP mod -1.8%.
`COC(=O)/C=C1\OCc2cccc(C)c21` gave ClpP mod 0.9%.
`COC(=O)[C@@]12C[C@@H](CC(=O)N3CCCCC3)C(=O)N(Cc3cccc4ccccc34)C1=CCC(C)(C)C2` gave ClpP mod 1.2%.
COc1ccc(C2=Nc3ccccc3N(C(=O)c3ccc4ncccc4c3)C2C(=O)NC2CCCC2)cc1 (stereo unspecified) was read as ClpP mod -10.5%.
O=C1Nc2ccccc2-n2nnnc2C1N1CCN(c2cccc(C(F)(F)F)n2)CC1 (stereo unspecified) was read as ClpP mod -20.0%.
For CCOC(=O)N1CCN(C(=O)C[C@@H]2C[C@@]3(C(=O)OC)CCCCC=C3N(CCc3ccc(OC)c(OC)c3)C2=O)CC1 the results were ClpP mod -2.4%.
COC(=O)[C@@]12C[C@@H](CC(=O)N3CCN(C(=O)c4ccco4)CC3)C(=O)N(Cc3ccccc3)C1=CCC(C)(C)C2 was read as ClpP mod -0.2%.
`Cc1cccc(C)c1NC(=O)C(c1ccccc1)N1CCC(c2ccccc2)CC1` (stereo unspecified) gave ClpP mod -0.4%.
`Cc1ccc(S(=O)(=O)C[C@@H]2OC[C@H](CO)N2S(=O)(=O)c2ccc(C)cc2)cc1` gave ClpP mod 1.1%.
For O=C(Nc1ccc2c(c1)OCCO2)C1C(=O)Nc2ccccc2C(=O)N1C1CCCCC1 (stereo unspecified) the results were ClpP mod -4.2%.
CC(C)(C)C(c1nc2ccccc2[nH]1)n1c(-c2ccsc2)nc2ccccc21 (stereo unspecified) was read as ClpP mod -14.8%.
For CCCCNC(=O)c1nc(C2CCN(S(=O)(=O)c3ccc(S(C)(=O)=O)cc3)CC2)oc1-c1ccccc1 the results were ClpP mod -10.4%.
COC(=O)[C@]12CCCCC=C1N(Cc1ccc3c(c1)OCO3)C(=O)[C@H](CC(=O)NCC13CC4CC(CC(C4)C1)C3)C2 was read as ClpP mod -2.2%.
Screening CCCCNC(=O)c1nc(-c2cccc(C(F)(F)F)c2)oc1-c1ccc(OC(F)(F)F)cc1 returned ClpP mod inconclusive.
CC1=C(C(=O)N2CCCCCC2)CC(CC(=O)NCCN2CCOCC2)C(=O)N1CCCN1CCCC1=O (stereo unspecified) was read as ClpP mod -1.3%.
`O=C(C[C@@H]1C=C[C@@H](NC(=O)C2CC2)[C@@H](CO)O1)NCc1ccccc1Cl` gave ClpP mod -1.4%.
Screening O=C(Nc1ccc2c(c1)OCCO2)C(c1ccncc1)n1c(=O)c(-c2ccco2)nc2ccccc21 (stereo unspecified) returned ClpP mod -16.3%.
For COc1ccccc1CNC(=O)C[C@@H]1CC[C@H]2[C@@H](COC[C@H](O)CN2Cc2ccccc2)O1 the results were ClpP mod -2.1%.
CC(C)CCN1C(=O)CSCC1(C)C(=O)NCc1ccccc1 (stereo unspecified) was read as ClpP mod -3.3%.
Screening COc1ccc(NC(=O)C(c2ccnc3ccccc23)n2c(=O)c(-c3ccccc3)nc3ccccc32)cc1 (stereo unspecified) returned ClpP mod -5.8%.
For CC(C)(C)N1C(=O)c2ccccc2NC(=O)C1C(=O)NCCc1ccccc1 (stereo unspecified) the results were ClpP mod -3.0%.
Screening COc1ccc(C2=Nc3ccccc3N(C(=O)c3ccc(C(F)(F)F)cc3)C2C(=O)Nc2ccc3c(c2)OCCO3)cc1 (stereo unspecified) returned ClpP mod -6.5%.
Screening CCCCOCCCNC(=O)C[C@@H]1C[C@@]2(C(=O)OC)CCCCC=C2N(CCc2ccc(OC)c(OC)c2)C1=O returned ClpP mod -1.1%.
For O=C(NCc1ccccc1)C(C1CC1)n1c(=O)c(-c2cc3ccccc3[nH]2)nc2ccccc21 (stereo unspecified) the results were ClpP mod 4.0%.
`COC(=O)[C@@]12C[C@@H](CC(=O)NCc3cccc(C(F)(F)F)c3)C(=O)N(CCc3ccc(OC)c(OC)c3)C1=CCC(C)(C)C2` gave ClpP mod 2.6%.
For Cc1ccc2ccc(C(Nc3ccccc3)c3ccc(C(C)C)cc3)c(O)c2n1 (stereo unspecified) the results were ClpP mod -1.3%.
Cc1ccc(S(=O)(=O)Nc2ccc(Cl)cc2O)cc1 was read as ClpP mod -5.5%.
For COc1ccc(CN2C(=O)CCC2(C)c2nnnn2C2CCCCC2)cc1 (stereo unspecified) the results were ClpP mod 0.3%.
COc1ccc(CN2C(=O)CN(S(C)(=O)=O)CC2(C)C(=O)NCc2ccccc2)cc1OC (stereo unspecified) was read as ClpP mod -0.4%.
Cc1ccc(S(=O)(=O)N[C@H]2CCC[C@@H]2O)cc1 was read as ClpP mod 0.1%.
`O=C(C[C@H]1C=C[C@H](NC(=O)c2ccccn2)[C@@H](CO)O1)NCc1cc(F)cc(F)c1` gave ClpP mod -2.7%.
COC(=O)C[C@H]1C=C[C@@H](NS(=O)(=O)c2ccc(C)cc2)[C@@H](CO)O1 was read as ClpP mod -1.3%.
CC(C(=O)NCc1ccccc1)n1c(CSCCOc2ccccc2)nc2ccccc21 (stereo unspecified) was read as ClpP mod -4.6%.
`Cn1cc([C@]2(O)C(=O)Nc3ccc(F)cc32)c2ccccc21` gave ClpP mod 0.1%.
Screening COC(=O)[C@@]12C[C@@H](CC(=O)NCCc3ccccc3OC)C(=O)N(Cc3ccc4c(c3)OCO4)C1=CCC(C)(C)C2 returned ClpP mod -1.4%.
For O=C1NC[C@H](CC2CCCCC2)N(CCc2cc(C(F)(F)F)cc(C(F)(F)F)c2)C1=O the results were ClpP mod 1.1%.
C#CCNC(=O)C[C@@H]1C[C@@]2(C(=O)OC)CC(C)(C)CC=C2N(CCc2ccc(OC)c(OC)c2)C1=O was read as ClpP mod -3.3%.
COC(=O)C[C@@H]1C=C[C@@H](NC(=O)c2ccccc2F)[C@@H](CO)O1 was read as ClpP mod -1.4%.
`CCC(=O)Nc1ccc2c(c1)OC[C@@H](C)N(Cc1ccccc1F)C[C@@H](C)[C@@H](OC)CN(C)C2=O` gave ClpP mod -0.2%.
Cc1noc(C)c1NC(=O)N1C[C@H](O)COC[C@H]2O[C@@H](CC(=O)NCC3CCCCC3)CC[C@@H]21 was read as ClpP mod -1.6%.
Screening COC(=O)[C@@]12C[C@@H](CC(=O)NCc3cccs3)C(=O)N(Cc3ccco3)C1=CCC(C)(C)C2 returned ClpP mod 2.2%.
`CCCCCNC(=O)C(c1cccc2ccccc12)n1c(=O)c(-c2cc3ccccc3[nH]2)nc2ccccc21` (stereo unspecified) gave ClpP mod 38.2%.
Screening O=c1ccc(-c2nc3ccccc3n2C(CCc2ccccc2)c2nc3ccccc3[nH]2)c[nH]1 (stereo unspecified) returned ClpP mod -17.8%.
For O=C(NCc1ccccc1)C(c1cccc2ccccc12)n1c(=O)c(-c2ccccc2)nc2ccccc21 (stereo unspecified) the results were ClpP mod -10.5%.
`Cc1cccc(C)c1NC(=O)C1(C)CSCC(=O)N1CCC(C)C` (stereo unspecified) gave ClpP mod 1.1%.
For COc1ccc(NC(=O)C(c2cc3ccccc3o2)n2c(=O)c(-c3cc4ccccc4[nH]3)nc3ccccc32)cc1 (stereo unspecified) the results were ClpP mod 33.5%.
CCCC(=O)Nc1ccc2c(c1)C(=O)N(C)C[C@@H](OC)[C@H](C)CN(Cc1ccc(-c3ccccn3)cc1)[C@@H](C)CO2 was read as ClpP mod 0.5%.
`Cc1ccc(S(=O)(=O)N2[C@@H](CO)CO[C@H]2CC(=O)c2ccc(F)cc2)cc1` gave ClpP mod 1.0%.
O=S(=O)(N[C@@H]1CC[C@H](CCNS(=O)(=O)c2ccccc2Cl)O[C@@H]1CO)c1ccccc1 was read as ClpP mod -1.1%.
CCCCNC(=O)c1nc(C2CCN(S(=O)(=O)c3c(OC)cccc3OC)CC2)oc1-c1ccccc1 was read as ClpP mod inconclusive.
Screening O=C(Nc1ccc(F)cc1)C(c1cc2ccccc2o1)N1CCN(CC(=O)N2CCCC2)CC1 (stereo unspecified) returned ClpP mod 0.7%.
Screening Cc1nc2ccc(C(=O)N3c4ccccc4N=C(c4ccc5c(c4)OCO5)C3C(=O)NCc3ccccc3)cc2[nH]1 (stereo unspecified) returned ClpP mod -25.0%.
COC(=O)[C@@]12C[C@@H](CC(=O)N3CCN(C(=O)C4CC4)CC3)C(=O)N(Cc3ccccc3)C1=CCC(C)(C)C2 was read as ClpP mod 1.6%.
COc1cccc(C(C(=O)NCc2ccccc2)N2CCN(c3cccc(C)c3C)CC2)c1OC (stereo unspecified) was read as ClpP mod -7.1%.
`COC(=O)/C=C1\OCc2ccccc21` gave ClpP mod 0.3%.
`Cn1cc([C@]2(O)C(=O)N(c3ccccc3)c3ccccc32)c2ccccc21` gave ClpP mod 0.6%.
For COCCCN1C(=O)C(CC(=O)NC2CCCCC2)CC(C(=O)N2CCCCCC2)=C1C (stereo unspecified) the results were ClpP mod 1.2%.
`O=C(Cc1cc(C(F)(F)F)cc(C(F)(F)F)c1)Nc1c(-c2ccccc2)[nH][nH]c1=O` gave ClpP mod 0.7%.
For CC1=C2CCCC[C@@]23C2C(=O)N(C)C(=O)[C@@H]2ON3OC1 (stereo partly specified) the results were ClpP mod -2.2%.
`Cc1ccc(OCc2nc3ccccc3n2C(C(=O)Nc2c(C)cccc2C)C2CC2)cc1` (stereo unspecified) gave ClpP mod -3.8%.
Screening CO[C@@H]1CN(C)C(=O)c2cc(NC(=O)Nc3ccc(Cl)cc3)ccc2OC[C@H](C)NC[C@H]1C returned ClpP mod -0.9%.
COC(=O)[C@@]12C[C@@H](CC(=O)N3CCSCC3)C(=O)N(Cc3cccc4ccccc34)C1=CCC(C)(C)C2 was read as ClpP mod -2.5%.
Screening CCCCNC(=O)C[C@@H]1C[C@@]2(C(=O)OCC)CCCC=C2N(CCC2=CCCCC2)C1=O returned ClpP mod 2.0%.
Screening CC(=O)C[C@H]1SC[C@@H](C(C)C)N1S(=O)(=O)c1ccc(C)cc1 returned ClpP mod -4.6%.
For CC(C)(C)NC(=O)C(c1ccc(-c2ccccc2)cc1)n1c(=O)c(-c2ccco2)nc2ccccc21 (stereo unspecified) the results were ClpP mod 4.3%.
